Screening data as filed in PubChem BioAssay.
VDR inh – blocks the human vitamin D receptor; 400,000 tested, 0.93% active; Potency, µM, for inactives: max response, negative = inhibition, usual class: inhibitors; AID 504847; P11473; VDR-SRC2-3 peptide fluorescence polarization, 2 h; active means well fitted inhibition curve with a large enough effect; inconclusive means small, poorly fitted or top-dose-only effect, or another doubt; inactive means no such curve, though single readings can be large or run the other way; further: series mostly up to about 120 µM
Target sequence (P11473 whole entry, looked up): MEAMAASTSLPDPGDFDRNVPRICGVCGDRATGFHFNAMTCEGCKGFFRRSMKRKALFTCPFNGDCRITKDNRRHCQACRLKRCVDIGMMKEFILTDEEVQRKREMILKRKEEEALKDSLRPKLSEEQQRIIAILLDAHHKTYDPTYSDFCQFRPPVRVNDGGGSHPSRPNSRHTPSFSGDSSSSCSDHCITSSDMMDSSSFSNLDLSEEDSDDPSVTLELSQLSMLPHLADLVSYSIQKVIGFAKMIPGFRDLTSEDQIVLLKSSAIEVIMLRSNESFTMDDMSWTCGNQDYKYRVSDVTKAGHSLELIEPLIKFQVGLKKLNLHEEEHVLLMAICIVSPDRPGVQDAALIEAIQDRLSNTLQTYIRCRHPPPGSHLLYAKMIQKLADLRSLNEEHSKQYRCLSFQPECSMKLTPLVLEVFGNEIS
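Measured by FP: displacement of SRC2-3 coactivator peptide from VDR by library compounds, following a two-hour ambient incubation.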
* hit, by the source's call; ? = inconclusive; & = joins results of further samples; [ ] = another dose, or the depositor's remark. On the % scale 0 is the no-effect control and ±100 the full control effect; potency means the concentration at half of the fitted maximal effect. A portion of the library; the hit share may differ from the screen's.

Compound,VDR inh
COC(=O)c1ccccc1NC(=O)CSc1nnnn1C1CCCCC1,13%
CCn1c(=O)c([N+](=O)[O-])c(Cl)c2ccccc21,?
CNC(=O)C1CCN(c2nc3ccccc3nc2C(F)(F)F)CC1,8%
Cc1nn(-c2ccccn2)c2c1C(c1ccccc1Cl)C1=C(N2)c2ccccc2C1=O (stereo unspecified),10%
O=C1NC[C@H](Cc2ccccc2)N(CC2CCN(CCc3ccccc3)CC2)C1=O,6%
Cc1ccc(NC(=O)CN(C)S(=O)(=O)c2ccc3[nH]c(=O)oc3c2)c(C)c1,-15%
CCN(c1ccccc1)S(=O)(=O)c1ccc(Cl)c(NC(=O)COC(=O)c2ccc[n+]([O-])c2)c1,-12%
COC(=O)c1cc2occc2n1CC(=O)Nc1cccc(SC)c1,8%
COc1cc(/C=N/NS(=O)(=O)c2ccccc2)c(OC)c(OC)c1,-18%
O=C(Nc1cccc(F)c1)N1CCC(n2c(=O)[nH]c3ccccc32)CC1,-3%
CCOc1ccc(/C=N/NC(=O)c2cc3c(OC)cc(OC)cc3[nH]2)cc1OC,-16%
COC(=O)[C@@]12CCCCN1[C@H](c1ccc(-c3ccc(F)cc3)cc1)[C@H]1C(=O)N(C)C(=O)[C@H]12,-7%

Another view of some results above.
O=C(Nc1cccc(F)c1)N1CCC(n2c(=O)[nH]c3ccccc32)CC1
  VDR inh: -3%
O=C1NC[C@H](Cc2ccccc2)N(CC2CCN(CCc3ccccc3)CC2)C1=O
  VDR inh: 6%
Cc1ccc(NC(=O)CN(C)S(=O)(=O)c2ccc3[nH]c(=O)oc3c2)c(C)c1
  VDR inh: -15%

Other entries
Compound,VDR inh
Cc1cc(C(=O)C(=O)N(C)C)c(C)n1-c1ccc(Cl)c(Cl)c1,-5%
CCOC(=O)c1cccnc1SC(CC)C(=O)N1CCOCC1 (stereo unspecified),12%
CN1CCN(C(CNS(=O)(=O)c2ccc(Cl)cc2)c2cccnc2)CC1 (stereo unspecified),-6%
CCCCCC(=O)c1c(C)[nH]c(C(=O)OCC)c1C,-9%
Cc1ccc(-n2nnc3c(=O)n(CC(N)=O)cnc32)cc1,-12%
FC(F)(F)c1cc(NC(=S)Nc2ccc3ccccc3c2)cc(C(F)(F)F)c1,-19%
Cc1cccc(N2CC(C(=O)Nc3ccc(S(=O)(=O)N4CCCCC4)cc3)CC2=O)c1C (stereo unspecified),20%
CC(NC(=O)CN1CCC(C(N)=O)CC1)c1ccccc1 (stereo unspecified),1%
CCN(CC)C(=O)CN(c1cccc(OC)c1)S(=O)(=O)c1ccc(C)cc1,-19%
O=C(COc1ccc2c(c1)OCO2)Nc1ccccc1C(F)(F)F,-5%
Cc1csc(=O)n1CC(=O)OCC(=O)Nc1cc(Cl)ccc1[N+](=O)[O-],4%
CCOc1ccccc1C(=O)Nc1nccs1,16%

Two entries from above, set out differently:
FC(F)(F)c1cc(NC(=S)Nc2ccc3ccccc3c2)cc(C(F)(F)F)c1
- VDR inh: -19%

Cc1cccc(N2CC(C(=O)Nc3ccc(S(=O)(=O)N4CCCCC4)cc3)CC2=O)c1C (stereo unspecified)
- VDR inh: 20%

Next entries
Compound,VDR inh
CCOc1cc(C(=O)O)cc(Cl)c1OC,5%
CC(=Nc1ccccc1C)C1=C(O)CSC1=O,3%
O=C(N/N=C/c1ccco1)c1cc(-c2cccc3ccccc23)n[nH]1,-8%
CCOC(=O)C1C(=O)NC(N2CCOCC2)=NC1C(C)C (stereo unspecified),-15%
Nc1nonc1-n1nnc(C(=O)N/N=C/c2c[nH]c3ccccc23)c1-c1ccccc1,17%
O=C(NCCC1CCCCN1S(=O)(=O)c1cccs1)C(=O)Nc1ccc(F)cc1F (stereo unspecified),5%
Cc1ccc(NC(=O)c2c(Cl)nc3ccccn23)cc1,-19%
C=CCN1C(=O)/C(=C/c2ccc(OCC(=O)O)cc2)S/C1=N/c1nccs1,?
Cc1ccc(C(=O)N2CCCC(C(=O)c3ccc(Oc4ccccc4)cc3)C2)cn1 (stereo unspecified),-1%
C/C(=N\NC(=O)Cn1nc(C)c([N+](=O)[O-])c1C)c1ccc(Cl)s1,10%
CCOC(=O)c1c(S(=O)(=O)N2CCC(C(=O)Nc3ccc(C)cn3)CC2)c(C)n(C)c1C,2%
COC(=O)c1ccc(OC(=O)C2CC(=O)N(c3ccc(C)cc3C)C2)cc1 (stereo unspecified),0%
CC(=O)c1ccc2c3c(cc(C)c2c1)CCCC3,1%
CN1CCN(Cc2cn[nH]c2-c2ccc(F)cc2F)[C@@H](c2ccccc2)C1,-2%
CC(C)CCNC(=O)c1cccc(C(=O)NCCC(C)C)c1,-14%
COc1cc(-c2nnc(CSc3nnc(Nc4ccc(C(C)C)cc4)s3)o2)cc(OC)c1OC,-2%
CS/C(=C\C(=O)c1ccco1)Nc1ccccc1Cl,-11%
Cc1cc(C)c(S(=O)(=O)NCc2cccnc2)cc1C,-1%
CC(C)C(C)NC(=O)CN1C(=O)NC2(CCc3ccccc3C2)C1=O (stereo unspecified),0%
CCn1c(=O)cc(OCC(=O)N2CCN(c3ccc(F)cc3)CC2)c2ccccc21,?
COc1ccc2c(Cl)c(C(=O)NN)sc2c1,-10%
Cc1ccc(S(=O)(=O)Nc2ccc(N3CCCCC3)cc2)cc1,2%
O=C(Oc1ccc(C(=S)N2CCC(O)CC2)cc1)c1ccc(Cl)cc1,-7%
COc1ccccc1NC(=O)N1CCOc2ccccc21,11%
CO[C@H]1O[C@H](CBr)[C@@H](OC(=O)c2ccccc2)[C@H](O)[C@H]1O,-1%
CCOc1ccc(C(=O)Nc2cc(-c3nc4ccccc4s3)ccc2OC)cc1,2%
CC(=O)N1CCn2c3c(c(=O)c4cc(C)ccc42)CCC31 (stereo unspecified),?
O=S(=O)(NC1CCCCC1N1CCN(c2ccccc2F)CC1)c1ccccc1 (stereo unspecified),0%
CC(NC(=O)c1ccc2c(=O)n3c(nc2c1)CCC3)c1ccc(S(N)(=O)=O)cc1 (stereo unspecified),-8%
O=C(OCCN1CCCCC1)c1ccc(O)cc1,26%
Cn1c(SCC(=O)c2ccc(O)c(O)c2)nnc1-c1cccs1,-4%
CC(=O)Nc1nc2n(n1)C(c1ccccc1)C=C(c1ccccc1)N2 (stereo unspecified),-2%
COc1cc(NC(=O)c2ccc3c(c2)OCCO3)ccc1NC(=O)c1ccccc1Cl,-4%
COc1ccc(/C=N/N(C(C)=O)c2nc(-c3ccc(C)cc3)cs2)cc1,3%
Fc1ccc(SCCc2ccccn2)cc1,13%&-1%
CCOC(=O)c1ccc(NC(=O)CSCCC(=O)O)cc1,-4%

Quoted at random: 2 records from the list
Compound,VDR inh
CC(=O)Nc1nc2n(n1)C(c1ccccc1)C=C(c1ccccc1)N2 (stereo unspecified),-2%
CCOC(=O)c1ccc(NC(=O)CSCCC(=O)O)cc1,-4%

(listing goes on)
Compound,VDR inh
Cc1cc(C)cc(N2C(=O)c3nccnc3C2=O)c1,-19%
C#CCN1C(=O)C(O)(CC(=O)c2ccc3c(c2)OCCO3)c2ccccc21 (stereo unspecified),-17%
CC(C)C(=O)Nc1nnc(S(=O)(=O)N2CCCCCC2)s1,-22%&5%
OCC(O)/C=N/Nc1nc(Nc2ccccc2)nc(Nc2ccccc2)n1 (stereo unspecified),0%
O=C(N1CCN(c2ccccc2)CC1)C(F)(F)C(F)F,0%
COc1ccc(-c2onc(C)c2C)cc1S(=O)(=O)N1c2ccccc2CC1C (stereo unspecified),5%
Cc1ccccc1NC(=O)COc1cccc2c1CCNC2=O,0%
CC(C)n1c(SCc2ccccc2F)nc2c1c(=O)n(C)c(=O)n2C,?
COc1cc(C2C(C#N)=C(SC)NC3=C2C(=O)CCC3)ccc1O (stereo unspecified),0%
COCCCn1c(=O)c2ccccc2n(Cc2ccccc2C)c1=O,-8%
CCCCc1nnc(NC(=O)C2CCN(c3ncnc4sc(C)c(C)c34)CC2)s1,?
COc1ccc(NC(C)C(=O)N/N=C/c2c(O)ccc3ccccc23)cc1 (stereo unspecified),-9%
COc1cccc(NS(=O)(=O)c2ccc3[nH]cc(C(=O)NCCCOC(C)C)c(=O)c3c2)c1,-5%
COc1ccc(COC(=O)c2ccc(N3CCCC3=O)cc2)cc1F,-2%
COc1ccc(OCC(O)CNc2ccc(Br)cc2)cc1 (stereo unspecified),-3%
COc1cccc(NC(=O)C2CCN(S(=O)(=O)c3ccc4[nH]c(=O)ccc4c3)CC2)c1,5%
CC(NC(=O)c1ccncc1)c1ccc(Br)cc1 (stereo unspecified),5%
COc1ccc(CCNC(=O)Cc2ccc3c(c2)OCO3)cc1OC,-5%
c1cncc(CN=C2Nc3ccccc3CS2)c1,8%
COC(=O)/C(=C1\Oc2ccc(C(C)(C)C)cc2S1)C(F)(F)F,-13%
COc1cccc(NC(=O)CSc2nc3ccccc3c3nc4ccccc4n23)c1,3%
COc1ccc(Nc2c3c(nc4ccccc24)CCC3)cc1Cl,-18%
O=C(Nc1cccc(O)c1)c1cc(-c2ccc3c(c2)OCO3)on1,7%
CC(C)(C)c1ccc(C(=O)Nc2ccc(OCc3cc(=O)n4ccsc4n3)cc2)cc1,-29%

Carrying on.
compound | VDR inh
Cc1cc(Cl)nc(SCC(=O)c2ccccc2)n1 | 10%
N=c1sccn1CC(=O)Nc1ccc(Cl)c(S(=O)(=O)N2CCOCC2)c1 | 22%
O=C(CNC(=O)c1ccc(Cl)cc1)NCCCn1ccnc1 | -23%
COC(=O)/C(=C\c1cccnc1)NC(=O)c1ccc(OCc2ccccc2)cc1 | 1%
COc1ccc(CCN(C(=O)c2ccc(F)cc2)C2=CC3CCC(C2)N3C)cc1OC (stereo unspecified) | 14%
c1ccc(-c2nnc(-c3ccco3)n2-c2ccccc2)cc1 | 1%
COc1ccc(-c2noc(C3CC(=O)N(c4ccccc4)C3)n2)c(OC)c1 (stereo unspecified) | 4%
CC(Sc1nncn1C)C(=O)Nc1ccc(N2CCCCC2)cc1 (stereo unspecified) | 27%
CCOC(=O)Cn1c(=O)c2c(nc3n2CCN3c2ccc(CC)cc2)n(C)c1=O | 8%
CCCOc1ccc(C(=O)Nc2ccc(S(=O)(=O)NC3=NCCCCC3)cc2)cc1 | -14%
Cc1ccc(NC(=O)C2CC2C)c(Cl)c1 (stereo unspecified) | -11%
N=C1/C(=C\c2ccc(OC(=O)c3ccco3)cc2)C(=O)N=C2SC(N3CCCCC3)=NN12 | ?
O=C(CCC1CCCC1)Nc1cc(Cl)ccc1N1CCOCC1 | 20%
CSCCC(NS(=O)(=O)c1ccc(Cl)cc1)C(=O)OCC(=O)NC12CC3CC(CC(C3)C1)C2 (stereo unspecified) | -5%
CSCc1cc(N2CCOCC2)nc(-c2ccccc2)n1 | 8%
O=C(CNc1ccc2ccccc2c1)N/N=C/C=C/c1cccc([N+](=O)[O-])c1 | -13%
CCN(CC)C(=O)Cn1cc(C(=O)C(=O)NCc2ccco2)c2ccccc21 | 0%
CCc1ccc(-c2nn[nH]n2)cc1 | 13%
CCOC(=O)CNC(=O)CSc1nc2cccnc2n1C | 5%
Cc1cc(C)c(C)c(S(=O)(=O)N2CCN(C(=O)C3CSC4(C)CCC(=O)N34)CC2)c1C (stereo unspecified) | -21%
COc1ccc(CNC(=O)CN2CCN(S(=O)(=O)c3cc(Br)ccc3Br)CC2)cc1OC | -8%
O=C(c1ccc(SCc2ccco2)c([N+](=O)[O-])c1)N1CCOCC1 | -8%
COc1ccc(OC)c2[nH]c(=O)c(CCNC(=O)c3ccc(Br)o3)cc12 | -16%
COc1ccc(NC(=O)c2cnc(N3CCCC3)nc2)cc1OC | 3%

Quoted from the listing.
`CCN(CC)C(=O)Cn1cc(C(=O)C(=O)NCc2ccco2)c2ccccc21` – VDR inh = 0%
`Cc1cc(C)c(C)c(S(=O)(=O)N2CCN(C(=O)C3CSC4(C)CCC(=O)N34)CC2)c1C` (stereo unspecified) – VDR inh = -21%
`O=C(CNc1ccc2ccccc2c1)N/N=C/C=C/c1cccc([N+](=O)[O-])c1` – VDR inh = -13%
`COc1ccc(NC(=O)c2cnc(N3CCCC3)nc2)cc1OC` – VDR inh = 3%
`CSCCC(NS(=O)(=O)c1ccc(Cl)cc1)C(=O)OCC(=O)NC12CC3CC(CC(C3)C1)C2` (stereo unspecified) – VDR inh = -5%
`CSCc1cc(N2CCOCC2)nc(-c2ccccc2)n1` – VDR inh = 8%

(list continues)
compound | VDR inh
O=C1NC2(CCCCC2)C(=O)N1CC(=O)N(Cc1ccccc1)c1ccccc1 | 38%[activator]
Cc1cc(C)c(OCCCCCn2ccnc2)c(C)c1 | 0%
COC(=O)C1CCN(c2csc3ccc(C)cc3c2=O)CC1 | 0%
CCOC(=O)C1CCCN(C(=O)c2ccc(S(=O)(=O)N3CCOCC3)cc2)C1 (stereo unspecified) | 5%
Cn1c(C(=O)O)cc2c(=O)n3ccccc3nc21 | -3%
CCOc1ccc(CN2CCNC(=O)C2CC(=O)NCCCn2ccnc2)cc1 (stereo unspecified) | 10%
O=C1N=C2SCCN2/C1=C\c1ccc(Cl)cc1 | ?
Cc1nn(Cc2ccccc2)c(Cl)c1C(=O)NCc1ccc(C)n1C | -4%
Cn1nnnc1SCCNCc1ccc(F)cc1 | 1%
CCOc1ccc(-n2c(=S)sc3c(=O)[nH]c(SCC(=O)NC(C)CC)nc32)cc1 (stereo unspecified) | -15%
CCN1CCN(c2ncnc3c2cnn3-c2ccc(C)cc2C)CC1 | ?
Cc1ccc(-n2c(-c3cnccn3)n[nH]c2=S)c(Br)c1 | 9%
CC(NC(=O)C(=O)N1CCCCC1)C(c1cccs1)N1CCN(C)CC1 (stereo unspecified) | -20%
COc1ccc(-c2csc3ncnc(N4CCN(c5ccccc5[N+](=O)[O-])CC4)c23)cc1 | 2%
CC1(C)CC(CCN(Cc2ccccc2)C(=O)c2ccco2)(c2ccccc2)CCO1 (stereo unspecified) | -7%
O=C(CSc1nnc(CNC(=O)c2ccccc2F)o1)c1ccc(Cl)cc1 | -5%
Cc1nnc(Nc2ccc3c(c2)ncn3C)c2ccccc12 | -7%
CC(C)(C)NC(=O)NC(=O)CSc1nnc(COc2ccccc2Cl)o1 | 4%
Cc1cccc(NC(=O)CNC(=O)CSc2nc(N)cc(N)n2)c1C | -12%
N#C/C(=C/Nc1ccccc1)c1ccsc1 | 5%
